Screens deposited in PubChem by National Center for Advancing Translational Sciences (NCATS).
NS1 inh = inhibitors of influenza NS1 protein function | S. cerevisiae slowed by influenza A NS1, growth recovery by OD600 | Potency, µM (titrated, usually from 46.1 µM), inactives show at the highest dose activity, positive = more growth | actives 0.4% (n = 270,000); active means well fitted rising curve with a large enough effect; inconclusive means small, poorly fitted or top-dose-only effect; inactive means no such curve, though single readings can be large or run the other way; also: nearly all actives have a fitted effect of over 50% in size
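Growth recovery, yeast-based: influenza A NS1 expressed in S. cerevisiae causes slow growth, and suppressors are detected by OD600. The parent strain without NS1 is used as positive control.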
Lassa entry inh = blocks Lassa virus binding to or entry into cells; AID 540256; Lassa virus pseudotype entry inhibition, cell reporter; control for the full effect not named in the record; Potency, µM (top dose mostly 37.9 µM), for inactives: top-dose activity change, negative = inhibition, actives largely listed as inhibitors; actives 1.2% (n = 300,000); active means well fitted inhibition curve with a large enough effect; inconclusive means small, poorly fitted or top-dose-only effect, or effect the other way; inactive means flat fitted curve, though single readings scatter; tested in HEK293 cells; also: % is scaled to controls: 0 for no effect and ±100 for the full control effect; nearly all actives have a fitted effect of over 50% in size; luciferase read-out
SARS PLpro yeast = blocks SARS-CoV papain-like protease in a yeast assay | actives 0.19% (n = 330,000) | Potency, µM (top dose mostly 32.9 µM), inactives show top-dose activity, positive = growth rescue | S. cerevisiae expressing SARS-CoV PLpro, growth rescue; control for the full effect not named in the record; active means well fitted rising curve with a large enough effect; inconclusive means small, poorly fitted or top-dose-only effect; inactive means no such curve, though single readings can be large or run the other way; also: 0% is about no effect; nearly all actives have a fitted effect of over 55% in size; growth read by luminescence after 48 h
Cruzain inh Det = cruzain (T. cruzi) inhibition with detergent | P25779 | purified cruzain, Z-FR-AMC fluorescence, 0.01% Triton | Potency, µM, for the others: max response, negative = inhibition, hits mostly inhibitors | actives 0.43% (n = 200,000) | AID 1478;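 also: plate controls were neutral wells for no effect and buffer without enzyme for full effect; nearly all actives have a fitted effect of over 40% in size; top concentration of the series not given in the record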
Target sequence (P25779 123-467 limits assumed): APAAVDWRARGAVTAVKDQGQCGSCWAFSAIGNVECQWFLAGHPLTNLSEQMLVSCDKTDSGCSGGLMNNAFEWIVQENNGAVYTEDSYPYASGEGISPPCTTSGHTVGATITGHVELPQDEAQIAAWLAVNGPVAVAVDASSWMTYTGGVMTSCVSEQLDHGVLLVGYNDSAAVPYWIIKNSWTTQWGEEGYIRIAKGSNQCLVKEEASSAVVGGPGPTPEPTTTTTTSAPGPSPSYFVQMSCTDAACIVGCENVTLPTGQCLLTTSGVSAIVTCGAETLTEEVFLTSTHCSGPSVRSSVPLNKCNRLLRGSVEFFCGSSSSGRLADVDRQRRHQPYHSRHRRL
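Detergent-containing run (0.01% Triton X-100) in acetate buffer pH 5.5 with 5 mM DTT: enzyme at 1.5 nM final, 15 min compound preincubation at room temperature, then 2 uM Z-FR-AMC substrate. Activity taken as 60 s fluorescence increase at 360/450 nm.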
Marburg entry inh = blocks Marburg virus binding to or entry into cells; Marburg virus pseudotyped entry inhibition, cell reporter; control for the full effect not named in the record; about a third of the inactives were read at about 46 µM; Potency, µM (doses to about 37.8 µM), inactives show at the highest dose activity change, negative = inhibition, usual class: inhibitors; actives 1.8% (n = 300,000); active = well fitted inhibition curve with a large enough effect; inconclusive = small, poorly fitted or top-dose-only effect, or effect the other way; inactive = flat fitted curve, though single readings scatter; tested in HEK293 cells; about a fifth of its hits are not listed in these tables; also: % is scaled to controls: 0 for no effect and ±100 for the full control effect; luciferase read-out
RE007 growth inh = less growth of the S. pombe RE007 Vpr strain. S. pombe RE007 Vpr strain, BacTiter-Glo ATP luminescence, 24 h; control for the full effect not named in the record. Potency, µM (top dose mostly 92.2 µM), without a hit: at the highest dose activity change, negative = less growth. actives 0.21% (n = 360,000). AID 651644; active = well fitted falling curve with a large enough effect; inconclusive = small, poorly fitted or top-dose-only effect; inactive = no such curve, though single readings can be large or run the other way;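 also: % is scaled to controls: 0 for no effect and ±100 for the full control effect; nearly all actives have a fitted effect of over 50% in size; the assay follows cell death caused by Vpr and the record does not say whether a fall means rescue or toxicity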
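Fission yeast RE007 carrying one integrated HIV-1 vpr copy, seeded at OD 0.01 in PMG+AL medium with 23 nL pinned compound. Grown 24 h at 30 degrees; viability read by BacTiter-Glo luminescence after 5 min.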
Cruzain noTriton = cruzain (T. cruzi) inhibition without detergent | P25779 | purified cruzain, Z-FR-AMC fluorescence, no detergent | Potency, µM, for inactives: max response, negative = inhibition, most hits filed as inhibitors | actives 2.3% (n = 200,000) | AID 1476;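 also: plate controls were enzyme without inhibitor for no effect and buffer without enzyme for full effect; nearly all actives have a fitted effect of over 40% in size; top concentration of the series not given in the record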
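Purified cruzain at 1.5 nM, pre-incubated 15 min with compound at room temperature in 100 mM sodium acetate pH 5.5, 5 mM DTT, 0.00005% Triton X-100. Reaction started with 2 uM Z-FR-AMC; AMC fluorescence increase over 60 s gives rate.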
StopGo reporter = lowers the luciferase signal of an FMDV 2A StopGo reporter. human cells with a luciferase reporter of 2A StopGo recoding; control for the full effect not named in the record. Potency, µM (series often up to 57.9 µM), for inactives: at the top dose signal change, negative = less light. actives 1.2% (n = 410,000). AID 1159524; active = well fitted falling curve with a large enough effect; inconclusive = small, poorly fitted or top-dose-only effect; inactive = no such curve, though single readings can be large or run the other way; tested in HEK293T cells; also: % is scaled to controls: 0 for no effect and ±100 for the full control effect; nearly all actives have a fitted effect of over 45% in size; luciferase light after 4 h
The depositor's hits bear a star; ? = inconclusive; · = no result given; & = joins results of further samples; [ ] = remark or other dose. Unless noted, calls follow the shape of the dose curve; as a rule, active = well fitted curve in the direction sought with a large enough effect; inconclusive = small, poorly fitted or top-dose-only effect, or another doubt; inactive = no such curve, though single readings can be large; an effect the other way counts as inactive or inconclusive. Potency is read from the fitted curve at half-maximal effect.

SMILES	NS1 inh	Lassa entry inh	SARS PLpro yeast	Cruzain inh Det	Marburg entry inh	RE007 growth inh	Cruzain noTriton	StopGo reporter
O=C(CCN1C(=O)c2ccccc2C1=O)Nc1cccc(F)c1	-9%	-8%	14%	-1.0%	1%	1%	1%	·
O=C(c1ccc2c(c1)OCO2)N1CCN=C1SCc1ccccc1	-64%	-6%	18%	-2.6%	6%	1%	-9%	-17%
Cc1ccc(NC(=O)Cn2nc(C(F)(F)F)c3c2CCCC3)cc1	·	5%[46.1 µM]	·	0.2%	-14%[46.1 µM]	·	-6%	-3%
CCOC(=O)C(C(=O)OCC)c1c([N+](=O)[O-])c(=O)n2c3c(cccc13)CCC2	3%	?	2%	·	2%[46.1 µM]	6%	·	-19%
Cc1cc(=O)oc2cc(OCC(=O)NCC3CCC(C(=O)O)CC3)ccc12 (centres undefined)	-8%	·	-1%	·	·	-1%	·	-10%
O=C(Cc1ccccc1)N1CCC2(CC1)NCCc1[nH]cnc12	4%	·	1%	·	·	7%	·	3%
COc1ccc(C2=NN(C(=O)CSc3ncccn3)C(c3ccc(OC)cc3)C2)cc1 (centres undefined)	1%	?	-4%	-10%	-31%	·	?	-21%
CCOC(=O)N1CCC(Nc2cc(C)nc3c(-c4ccccc4OC)c(C)nn23)CC1	-67%	·	-3%	-4.0%	·	0%	-4%	0%
O=C(Nc1ccccc1F)c1ccc(-c2ccccc2)s1	·	?	·	-5.0%	?	·	-12%	0%
O=C(c1nc2ccc(Cl)cn2c1CNCC[C@@H]1C[C@@H]2C=C[C@H]1C2)N1CCCCCCC1	2%	-17%[46.1 µM]	0%	·	?	-6%	·	-19%
CCNC(=O)COC(=O)c1cc(=O)[nH]c2ccccc12	14%	-13%	2%	1.5%	6%	-4%	-8%	6%
O/N=C/c1ccc2ccccc2n1	-39%	20%	-3%	·	?	17%	·	0%
COc1ccc(C(CC(=O)Nc2ccccn2)N2Cc3ccccc3C2=O)cc1 (centres undefined)	-4%	28%	0%	·	12%[46.1 µM]	0%	·	59%[activator]
CCOC(=O)C(C)Sc1nc(-c2cccs2)ccc1C#N (centres undefined)	-9%	-27%	-12%	-1.8%	-1%&-1%	?	11%	-7%
O=S(=O)(NC1c2cccc3cccc(c23)C1N1CCN(CCO)CC1)c1ccccc1 (centres undefined)	0%	?	7%	0.7%	?	24%	-4%	0%
Cc1cnc(C(=O)OCC(=O)NCc2ccccc2)cn1	7%	27%	3%	10%	7%	5%	10%	3%
O=C(Nc1ccnc(-c2ccncc2)n1)c1ccc(Cl)cc1	3%	·	1%	·	·	15%	·	11%
CCN(c1ccccc1)S(=O)(=O)c1ccc(N)cc1	-10%	·	-7%	1.7%	·	-13%	-6%	-13%
CC(NS(=O)(=O)c1ccc(N)cc1)C1CC2CCC1C2 (centres undefined)	-63%	1%	-11%	·	-1%[46.1 µM]	34%	·	10%
Cc1ccccc1Cn1c(-c2ccc(=O)[nH]c2)nc2ccccc21	12%	·	4%	·	·	3%	·	-19%
COc1ccc(NC(=O)c2ccc(-n3nc(C)cc3C)cc2)cc1OC	-15%	0%	2%	1.6%	-1%	2%	7%	3%
COc1ccc(-c2nc(CNS(=O)(=O)c3ccc(Br)cc3)cs2)cc1	·	-5%[46.1 µM]	·	-8.0%	2%[46.1 µM]	·	13%	4%
Brc1ccc(-c2csc(Nc3nc(-c4ccc(Br)cc4)cs3)n2)cc1	?	-12%[46.1 µM]	-2%	·	-18%[46.1 µM]	-9%	·	-1%
COc1ccc(CCn2c(=O)c3cccnc3n(CC(=O)Nc3ccc(C)c(F)c3)c2=O)cc1OC	·	·	·	-3.1%	0%[46.1 µM]	·	13%	-2%
O=C(Oc1ccccc1Cl)c1ccccc1	·	0%	·	·	3%	-8%	·	1%
COc1ccc(-c2cc(C(F)F)n3ncc(C(=O)NCCCN4CCCC4=O)c3n2)cc1	-15%	·	1%	-20%	·	-1%	22%	-22%
CCOc1ccc2sc(NS(=O)(=O)c3ccc(OC)c(OC)c3)nc2c1	-22%	2%	·	11%	13%	17%	-4%	159%[activator]
CCN(CC)C(=O)C(Oc1ccc(C)nc1[N+](=O)[O-])c1ccccc1 (centres undefined)	13%	-26%[46.1 µM]	13%	·	4%[46.1 µM]	-15%	·	2%
O=C(COC(=O)c1cncc(Br)c1)NCc1ccc(F)cc1	-1%	?	-2%	·	-6%[46.1 µM]	-3%	·	-6%
O=c1cc(Cl)[nH]n(-c2ccccc2)c1=O	-20%	·	-8%	·	·	-7%	·	1%
Cc1sc2c(c1C)c(=O)n(Cc1ccccc1)c(=O)n2CC(=O)Nc1cccc(Cl)c1	·	-28%[46.1 µM]	·	-4.6%	-22%[46.1 µM]	·	?	-15%
CCn1cc(C(=O)NCc2ccc(C)cc2)c(=O)c2cc(S(=O)(=O)N(C)C3CCCCC3)ccc21	·	-26%[46.1 µM]	·	-4.2%	-7%[46.1 µM]	·	1%	-1%
CCOC(=O)c1ccc(-n2c(-c3ccc(C)cc3)c(C)n3c4c(=O)n(C)c(=O)n(C)c4nc23)cc1	·	2%[46.1 µM]	·	1.5%	1%[46.1 µM]	·	-18%	-25%
CC(=O)OC1N=C(c2ccccc2)c2cc(Br)ccc2N(C)C1=O (centres undefined)	10%	-1%	0%	0.2%	0%	8%	0%	11%
O=c1c(-c2ccc3c(c2)OCCO3)coc2cc(OC3OC(CO)C(O)C(O)C3O)ccc12 (centres undefined)	8%	?	1%	·	?	-1%	·	38%[activator]
Cc1onc(-c2ccccc2)c1C(=O)N/N=C/c1cc2c(cc1Cl)OCO2	-7%	?	6%	-10%	?	-6%	5%	?
O=c1[nH]c(CSc2cccc[n+]2[O-])nc2ccccc12	-65%	·	-7%	·	·	-15%	·	67%[activator]
Cc1ccc(C(=O)N[C@H](C(=O)Nc2sccc2C(N)=O)C(C)C)cc1	15%	?	-2%	·	-3%[46.1 µM]	2%	·	4%
CC(C)CNC(=O)CN1c2cccc3cccc(c23)S1(=O)=O	2%	-1%[46.1 µM]	-10%	·	1%[46.1 µM]	-5%	·	7%
CC1OC(C)(C)OC1C1CNc2nc(NC(=O)C(C)(C)C)[nH]c(=O)c2N1C(=O)c1cccnc1 (centres undefined)	-5%	-1%	-15%	-4.0%	?	-10%	4%	-3%
O=C(CNC(=O)c1ccccc1)Nc1ccc(Br)cc1C(=O)c1ccccc1	-30%	-17%	0%	-4.4%	?	0%	-2%	1%
CC(C)Cn1c(SCC(=O)c2c(N)n(C)c(=O)n(C)c2=O)nc2ccccc21	18%	12%	3%	2.3%	2%[46.1 µM]	-5%	26%	?
CC(=O)Nc1ccc(NC(=O)COC(=O)[C@@H]2CCCN2C(=O)c2cccs2)cc1	·	9%[46.1 µM]	4%	·	-1%[46.1 µM]	6%	·	-17%
CCc1c(C)sc(NC(=O)c2ccoc2C)c1C(N)=O	-12%	5%	-2%	·	-12%	?	·	-5%
COc1ccc(Cl)cc1S(=O)(=O)NCc1cccnc1	13%	4%	17%	8.7%	-1%	3%	-6%	101%[activator]
O=C(Nc1cccn(Cc2ccccc2Cl)c1=O)NC1CCCCC1	-6%	·	0%	·	·	0%	·	-16%
COc1ccc(/C=N/N=C/c2ccc(OC)c(OC)c2)cc1OC	8%	-2%	0%	-8.3%	5%	?	-5%	10%
c1ccc(CN2CCN(Cc3c[nH]c4ccccc34)CC2)cc1	4%	-6%	-1%	·	?	-12%	·	-12%
COc1cccc(/C=N\NC(=O)c2ccc(C)nc2)c1	-13%	12%	1%	·	?	-13%	·	63%[activator]
COc1ccccc1OCc1ccc(C(=O)N2CCN3CCCC3C2)cc1 (centres undefined)	20%	11%	4%	-3.1%	0%	-5%	0%	-16%
CN(Cc1ccccc1)S(=O)(=O)c1ccc2c(c1)n(C)c(=O)n2C	-7%	9%	-1%	-1.0%	?	4%	18%	?
Cc1cccc2cc(CN(Cc3nnnn3Cc3ccco3)C3CCCC3)c3nnnn3c12	0%	-14%	-14%	-8.4%	-14%&-14%	-3%	-9%	-2%
Cc1cccc(C)c1NC(=O)COC(=O)Cc1ccsc1	4%	-24%	-6%	-2.2%	-8%	0%	-3%	-13%
COc1cccc(CNC(=O)CCc2nnc3n(C)c(=O)c4sccc4n23)c1	·	16%[46.1 µM]	·	-0.8%	5%[46.1 µM]	·	-12%	-18%
CC(C)CCn1c(NCCc2ccccc2)nc2c1c(=O)n(C)c(=O)n2C	5%	·	1%	·	·	-1%	·	20µM*
CCN(CC)C(=O)C1=C(C)NC(=O)NC1c1ccccc1F (centres undefined)	5%	·	7%	4.3%	-2%	·	-7%	·
CCCC(C(=O)NC1CCCCC1)N(CC1CCCO1)C(=O)CNS(=O)(=O)c1ccc(F)cc1 (centres undefined)	4%	?	-3%	-3.1%	-7%&-7%[46.1 µM]	21%	25%	-2%
CN(C)CCCc1cc(C(=O)Nc2ccc(-c3ccncc3)cc2)ccc1O	·	?	·	-2.7%	?	·	-5%	-14%
COCCNC(=S)N(CCc1c(C)[nH]c2ccc(F)cc12)Cc1ccc(C)cc1	14%	?	-2%	·	?	-6%	·	-6%
Cc1cc(C)c(S(=O)(=O)/N=C2\C=C(NS(=O)(=O)c3ccccc3)C(=O)c3ccccc32)c(C)c1	13%	23%[46.1 µM]	0%	·	?	3%	·	49%[activator]

Following part:
SMILES	NS1 inh	Lassa entry inh	SARS PLpro yeast	Cruzain inh Det	Marburg entry inh	RE007 growth inh	Cruzain noTriton	StopGo reporter
CCOC(=O)C1CCCN(C(=O)COc2ccc(C(=O)c3ccccc3)cc2)C1 (centres undefined)	·	-21%	-4%	·	5%[46.1 µM]	-1%	·	-1%
CC(Oc1ccc(F)cc1)C(=O)Nc1ccccc1N1CCCCC1 (centres undefined)	-9%	-27%	-4%	·	?	18%	·	?
Cc1cc(C)c(C#N)c(OCC(=O)c2ccccc2)n1	-6%	14%	7%	-5.6%	21%&21%[46.1 µM]	-5%	-6%	-17%
CCN(CC)CC(=O)n1c2c(c3ccccc31)CCCC2	6%	6%	-3%	0.8%	0%	-10%	-11%	-4%
